High-throughput results from PubChem BioAssay.
StopGo FLuc: Primary qHTS Assay for Foot and Mouth Disease Virus Antivirals against NCGC Sytravon and CBC Compound Libraries: Firefly Luciferase Signal | HEK cells with a luciferase reporter of 2A StopGo recoding | Potency, µM (doses to about 57.5 µM), for the others: at the top dose signal change, negative = less light | hit rate 0.23% among 120,000 | AID 1745856, 2022; active = well fitted falling curve with a large enough effect; inconclusive = small, poorly fitted or top-dose-only effect; inactive = no such curve, though single readings can be large or run the other way; further: nearly all actives have a fitted effect of over 60% in size; overnight with compound
StopGo RLuc: Primary qHTS Assay for Foot and Mouth Disease Virus Antivirals against NCGC Sytravon and CBC Compound Libraries: Renilla Luciferase Signal; Potency, µM (top dose mostly 57.5 µM), without a hit: at the highest dose signal change, negative = less light; hit rate 0.32% among 120,000; HEK cells with a luciferase reporter of 2A StopGo recoding; AID 1745857, 2022; active means well fitted falling curve with a large enough effect; inconclusive means small, poorly fitted or top-dose-only effect; inactive means no such curve, though single readings can be large or run the other way; further: nearly all actives have a fitted effect of over 55% in size; overnight with compound
* = called active by the depositor; ? = inconclusive; [ ] = dose if it differs, or a comment. On the % scale 0 is the no-effect control and ±100 the full control effect; potency means the concentration at half of the fitted maximal effect. Not all compounds are listed; count on the stated rates, not on these rows.

The line under a structure holds: StopGo FLuc | StopGo RLuc
CC(C)CN1CCOC(CNC(=O)C2CCN(c3nc4ccccc4o3)CC2)C1 (stereo not given)
  11% | -7%
Cc1cc(C)c(NC(=O)Cn2c(=O)n(-c3ccc(CC(=O)NCC4CCCO4)cc3)c(=O)c3ccccc32)c(C)c1 (stereo not given)
  -17% | -12%
Cc1cc(C)cc(NC(=O)c2sc3nc4n(c(=O)c3c2C)N=C(c2ccccc2)CS4)c1
  7% | -9%
Cc1ccc(CN(c2ccc(C(=O)NCc3ccccc3C)cc2)S(C)(=O)=O)cc1
  -9% | 28%
CCOc1ccc(NC(=O)Cn2c(=O)nc(-c3ccccc3)c3ccccc32)cc1
  0% | -8%
CCOC(=O)c1sc(NC(=O)c2cc(-c3ccc(F)cc3)on2)c(C(=O)OCC)c1C
  -13% | -8%
CCOc1ccc(C(=O)Nc2ccc3c(c2)OCCO3)cc1Br
  208%[activator] | 16%
O=c1oc2ccc(Cl)cc2cc1S(=O)(=O)N1CCCC1
  -4% | -16%
CCOc1ccccc1C1C(C(=O)Nc2ccc(OC)cc2)=C(C)Nc2nc(CCCO)nn21 (stereo not given)
  5% | 6%
CC(C)c1ccc(Nc2c(-c3ccccn3)nc3ccccn23)cc1
  -7% | 5%
CNC(=O)c1cccc(NC(=O)C2CCCCC2)c1
  0% | 49%[activator]
CCOCCCNC(=O)C(c1ccccc1)N(Cc1ccc2c(c1)OCO2)C(=O)c1ccc(NC(C)=O)cc1 (stereo not given)
  -15% | 22%
COc1ccc2nc(Nc3nc(-c4ccc(OC)c(OC)c4)cc(=O)[nH]3)nc(C)c2c1
  110%[activator] | 119%[activator]
COc1ccccc1NS(=O)(=O)c1ccc(-c2cnc(C)o2)cc1
  -13% | 69%[activator]
Cc1ccc(-n2ncc(C(=O)NCCCN3CCCCC3)c2C2CCN(C(=O)OC(C)(C)C)CC2)cc1
  -23% | -7%
Cc1ccc(CCNC(=O)c2cc(C)nc3c(C)cccc23)cc1
  23% | 15%
NS(=O)(=O)c1ccc(CCNC(=O)c2ccc3nc(Cc4ccccc4)oc3c2)cc1
  -21% | -12%
O=C(O)c1ccc2ccccc2n1
  0% | 8%
Cc1ccc(N(C)C(=O)CC(C)S(=O)(=O)c2ccc3c(c2)NC(=O)CO3)cc1 (stereo not given)
  26% | 3%
Cc1ccccc1Cn1c(CCNC(=O)C(C)C)nc2ccccc21
  7% | 13%
CC(C)(C)C1CCc2c(sc3c2C(c2ccc(O)cc2)CC(=O)N3)C1 (stereo not given)
  2% | 3%
COc1ccc2[nH]c(C)c(C(=O)CN3CCC(Cc4ccccc4)CC3)c2c1
  -10% | -3%
Cc1cccc(NC(=O)c2sc3nc4n(c(=O)c3c2C)N=C(c2ccc(F)cc2)CS4)c1C
  10% | -9%
COC(=O)C1=C(C)OC(n2cccc2)=C(C#N)C1c1cccc(OC)c1OC (stereo not given)
  6% | 14%
COc1ccc2c(COC(=O)c3ccccc3OC)cc(=O)oc2c1
  35%[activator] | -8%
CCCCCn1c(=O)c2c(nc3n2CCN3c2ccc(Br)cc2)n(C)c1=O
  2% | -3%
Cc1cn(C)c(CC(=O)NCc2ccc(Cl)cc2)c1C(=O)O
  -19% | -12%
CC(Oc1ccccc1)c1nn2c(=O)c3ccccc3nc2s1 (stereo not given)
  66%[activator] | 13%
CCc1c(C)c2ccc(O)c(CN3CCN(c4cc(Cl)ccc4C)CC3)c2oc1=O
  -7% | 3%
O=C(COC(=O)c1ccccc1C(=O)c1ccc(-c2ccccc2)cc1)c1ccccc1
  13% | 340%[activator]
COc1cccc(C(c2sc3nc(-c4ccco4)nn3c2O)N2CCC(C)CC2)c1 (stereo not given)
  51%[activator] | 96%[activator]
COC(=O)[C@]12C[C@H](CC(=O)NCCCN3CCCC3=O)C(=O)N(Cc3ccccc3)C1=C[C@H](COCc1ccccc1)O[C@@H]2C
  3% | 11%
COc1ccc(Cl)cc1NC(=O)C(C)OC(=O)c1ccsc1 (stereo not given)
  9% | 6%
Cc1cc(=O)n2nc(N3CCC(C(=O)Nc4ccc(C(C)C)cc4)CC3)sc2n1
  -13% | -17%
O=C(NCC(c1ccccc1)N1CCOCC1)c1cc(-c2cccs2)on1 (stereo not given)
  6% | 7%
CCOc1ccccc1CNCCSc1nnnn1C
  -9% | -2%
CCc1nc2cccnc2n1-c1ccc(CC(=O)Nc2cccc(C)c2C)cc1
  0% | -11%
COc1ccc(-c2cc(C(F)(F)F)nc(N3CCN(Cc4ccccc4)CC3)n2)cc1
  -9% | -12%
COc1ccc(NC(=O)Cn2nnnc2-c2ccccc2F)c(C)c1
  -5% | -14%
CSc1nn(CC(=O)Nc2cc(C)ccc2C)c(N)c1S(=O)(=O)c1ccccc1
  ? | ?

Four entries drawn at random from those above:
The line under a structure holds: StopGo FLuc | StopGo RLuc
CC(C)c1ccc(Nc2c(-c3ccccn3)nc3ccccn23)cc1
  -7% | 5%
CCOCCCNC(=O)C(c1ccccc1)N(Cc1ccc2c(c1)OCO2)C(=O)c1ccc(NC(C)=O)cc1 (stereo not given)
  -15% | 22%
CCOc1ccccc1CNCCSc1nnnn1C
  -9% | -2%
CCOc1ccc(NC(=O)Cn2c(=O)nc(-c3ccccc3)c3ccccc32)cc1
  0% | -8%

More structures.
The line under a structure holds: StopGo FLuc | StopGo RLuc
Cc1ccc(Cl)cc1N1CCN(C(=O)c2cc3ccc4cccnc4c3[nH]2)CC1
  -7% | ?
O=C(NCc1ccccc1)c1cccc(NC(=S)Nc2ccc(Br)cc2Cl)c1
  6% | 47%[activator]
COc1ccc(C2C=C(c3ccc(Cl)cc3)Nc3nc(-c4ccc(Cl)cc4)nn32)cc1 (stereo not given)
  -1% | -8%
Nn1c(SCC(=O)NCc2ccc(Cl)cc2)nnc1-c1cccs1
  9% | 2%
COc1cc(-c2c(NC(=O)CC(C)C)oc3c(C)cccc3c2=O)cc(OC)c1OC
  0% | -6%
O=C(c1ccncc1)N1CCN(Cc2c[nH]c3ccccc23)CC1
  -23% | -17%
CC(C)NC(=O)c1ccccc1I
  2% | -10%
COc1ccc(CC(=O)Nc2ccc3nc(Nc4cccc(Cl)c4)cc(C)c3c2)cc1OC
  ? | ?
COCCCNc1nc2c(c(=O)n(C)c(=O)n2C)n1Cc1ccc(Cl)c(Cl)c1
  ? | -20%
Clc1cccc(-n2ncc3c(Nc4ccc5c(c4)OCCO5)ncnc32)c1
  132%[activator] | ?
CC(C)c1ccc(C(=O)NCCCNC(=O)c2cc3ccccc3[nH]2)cc1
  70%[activator] | 16%
CN(Cc1ccccc1)S(=O)(=O)c1ccc2[nH]c3c(c2c1)CCCCC3
  -3% | -10%
O=C1CSC2(C(=O)N(Cc3cccc(F)c3)c3ccccc32)N1c1cccc(C(F)(F)F)c1 (stereo not given)
  ? | -29%
Cc1ccc(C(=O)NN=C(C(C)C)C(C)C)cc1C
  0% | 6%
CCOC(=O)c1c(NC(=O)CN2CCc3ccccc32)sc(C(C)=O)c1C
  0% | -3%
COc1ccc(-c2nc(NC(=O)c3nn(C(C)C)c(=O)c4ccccc34)sc2C)cc1
  6% | 3%
Cc1ccc2c(=O)c(C(=O)c3ccc(F)cc3)cn(CC(=O)Nc3ccc4c(c3)OCCO4)c2n1
  -23% | -9%
CN1CCN(C(C(=O)N(C)CCC(F)(F)F)c2ccccc2)CC1 (stereo not given)
  -11% | -13%
Cc1ccc(C2c3c(-c4ccccc4O)n[nH]c3C(=O)N2CCc2ccccc2)cc1 (stereo not given)
  -22% | -6%
O=C(NCC1CC2c3ccccc3C1c1ccccc12)c1cnccn1 (stereo not given)
  0% | -26%

By substructure, the entries above containing a CF3 group (3)
The line under a structure holds: StopGo FLuc | StopGo RLuc
COc1ccc(-c2cc(C(F)(F)F)nc(N3CCN(Cc4ccccc4)CC3)n2)cc1
  -9% | -12%
O=C1CSC2(C(=O)N(Cc3cccc(F)c3)c3ccccc32)N1c1cccc(C(F)(F)F)c1 (stereo not given)
  ? | -29%
CN1CCN(C(C(=O)N(C)CCC(F)(F)F)c2ccccc2)CC1 (stereo not given)
  -11% | -13%

Continuation:
The line under a structure holds: StopGo FLuc | StopGo RLuc
c1ccc(-c2ccc(-c3csc(-c4ccccn4)n3)cc2)cc1
  157%[activator] | 0%[1.06 µM]
CC(=O)c1ccc(NC(=O)CSc2cn(CC(=O)N3CCCCCC3)c3ccccc23)cc1
  ? | ?
COc1ccc(-c2nc(NC(=O)c3cccc(OC)c3)sc2C)cc1
  68%[activator] | -9%
CC(C)(C)c1cccc(/C=N/O)c1O
  -4% | -1%
CC1=C(C(=O)OC(C)(C)C)C(c2ccc(C(C)C)cc2)NC(=S)N1 (stereo not given)
  ? | ?
O=[N+]([O-])c1ccc(N/N=C/c2ccc(/C=N/Nc3ccc([N+](=O)[O-])cc3)cc2)cc1
  34%[activator] | -10%
CC(=O)Nc1ncc2c(n1)CC(c1ccc(Cl)cc1)CC2=O (stereo not given)
  9% | 3%
COc1ccc(S(=O)(=O)N2CCn3cccc3C2c2ccccc2)cc1 (stereo not given)
  14% | 12%
CCOC(=O)c1c(NC(=O)Cn2nnc(-c3ccccc3)n2)sc(C)c1C
  -3% | -7%
CCC(=O)N1CCc2cc(S(=O)(=O)CCC(=O)N3CCN(c4cc(C)ccc4C)CC3)ccc21
  -18% | -9%
COc1ccc(NC(=O)Cn2c(SCc3ccc(F)cc3)nc3cccnc32)cc1OC
  1% | ?
Cc1ccc(CNC(=O)c2nnc(Cc3ccc(Cl)cc3)o2)cc1
  5% | 3%
O=C(CCC(=O)N1CC2CCCN2c2ccccc21)NCc1ccc(F)cc1 (stereo not given)
  -16% | -8%
COCCCNC(=O)C1CCN(c2nnc(-n3cccc3CNc3ccc(C)cc3)s2)CC1
  0% | 32%[activator]
CC(Sc1ccc2ccccc2n1)C(=O)Nc1ccc(C(F)(F)F)cc1 (stereo not given)
  14% | 5%
O=[N+]([O-])c1cccc(CON=C2CCC3(CC2)OCCO3)c1
  2µM* | -8%
CCc1ccc(C(CNC(=O)c2nccnc2N)N(C)C)cc1 (stereo not given)
  0% | -14%
CC(C)Oc1cccc(-c2cc(C(=O)N3CCN(c4ncccn4)CC3)c3ccccc3n2)c1
  102%[activator] | 12%
COc1ccccc1NC(=O)c1cnn(-c2ccccc2)c1-n1cccc1
  4% | -3%
COc1ccc2c(Sc3ccc(C)cc3)c(C(=O)NCc3ccc(F)cc3)[nH]c2c1
  -10% | 23%
Cc1cc(C(=O)CSc2nnc(COc3ccc(Cl)cc3)n2C)c(C)n1CC1CCCO1 (stereo not given)
  -5% | 35%[activator]
Fc1ccccc1NC(=S)NCCc1c[nH]c2ccccc12
  68%[activator] | 97%[activator]
COc1ccc(-c2cc3ccc(O)c(CN4CCOCC4)c3oc2=O)cc1
  75%[activator] | -9%
COc1ccc(Nc2cc(C(=O)NCCc3ccc(C)cc3)c3ccccc3n2)c(OC)c1
  -5% | -4%
CCS(=O)(=O)N1CCN(c2ccc(N3CCCCC3)nn2)CC1
  123%[activator] | 5%
CCOc1ccc(CNCc2c(C(=O)O)n(Cc3ccc(C)cc3)c3cc(C)ccc23)cc1
  ? | ?
O=C1CCCC2=C1C(c1ccco1)c1c(ncn3nc(-c4ccco4)nc13)O2 (stereo not given)
  -3% | -5%
Cc1cc(C)cc(NC(=O)c2csc3c2CCCCC3)c1
  0% | 23%
O=C(CSc1nnc(C2CC2)n1C1CC1)Nc1ccc(Cl)c(S(=O)(=O)N2CCCCC2)c1
  ? | ?
COc1ccc(N(CC(=O)NCc2ccccc2Cl)S(=O)(=O)c2c(C)nn(C)c2C)cc1
  -9% | 58%[activator]
CSc1cccc(NC(=O)CN2C(=O)COc3ccc(S(=O)(=O)N4CCC(C)CC4)cc32)c1
  -9% | 16%
c1nc(CN2CCNCC2)cs1
  0% | -8%
CCCn1c(N)c(C(=O)CSc2cc(C)c3ccccc3n2)c(=O)[nH]c1=O
  -31% | -30%
CCCSc1nn(CCN(C)C)c2nc3sc4c(c3c(=O)n12)CCCC4
  -12% | -18%
C/C(=N\NC(=O)C1CC1)c1ccccn1
  34%[activator] | 2%
O=C(COC(=O)c1ccc2ccccc2n1)Nc1ccccc1OC(F)F
  5% | -12%
Cc1c(C(=O)Nc2ccc(F)cc2F)oc2c1-c1nn(Cc3c(F)cccc3Cl)cc1CC2
  -12% | -11%
CC(O)C(=O)O (stereo not given)
  25%[11.5 µM] | -1%
COC(=O)c1ccccc1NC(=O)CSc1nc2ccccc2nc1Cc1ccc(F)cc1
  -17% | -10%
Cc1nn2c(=O)cc(COC(=O)c3cccc(NC(=O)c4ccc(C(C)(C)C)cc4)c3)nc2s1
  -13% | -6%
O=C(Cn1c(=O)n(CC2CCC(C(=O)NCCc3ccccc3)CC2)c(=O)c2ccccc21)Nc1ccccc1 (stereo not given)
  18% | -4%
CCc1ccc(C2C(C(=O)c3ccc(C)cc3)=C(C(=O)OC)Nc3nnnn32)cc1 (stereo not given)
  8% | 15%
Cc1ccc(C(=O)/C=C/c2ccc(-c3cccc(Cl)c3Cl)o2)cc1
  -5% | 0%
